Beta cell apopt: blocks beta cell apoptosis. INS-1E cytokine-induced death, ATP luminescence, 48 h; percent of positive-control rescue, neutral wells zero. protection from apoptosis, % (test concentration not listed). actives 0.8% (n = 300,000). AID 435005;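 active = all replicates at 75% or more, or half of them and the mean; inconclusive = half reach 75% but not the mean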;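 note: 0% = cytokine-treated negative control wells and 100% = positive control rescue; higher means more ATP so stronger rescue from cytokine killing; wells of about 40 µL received 100 nL stock; the first replicate is given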
AF4-AF9 inh: MLL-AF4/AF9 protein interaction inhibition; P42568; AlphaScreen, biotin-AF4 peptide binding to FLAG-AF9; inhibition, % at 10 µM; actives 0.47% (n = 350,000); AID 651704;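 active = every replicate reaching a set inhibition limit, whatever the replicate mean, cut at about 25% in these data; inconclusive = mean inhibition reaches that limit but some replicates miss it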;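 note: 0% = plate neutral control median and 100% = total signal loss; the record names both 10 and 1 µM as test concentration; the first replicate is given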
Target sequence (P42568 whole entry, looked up): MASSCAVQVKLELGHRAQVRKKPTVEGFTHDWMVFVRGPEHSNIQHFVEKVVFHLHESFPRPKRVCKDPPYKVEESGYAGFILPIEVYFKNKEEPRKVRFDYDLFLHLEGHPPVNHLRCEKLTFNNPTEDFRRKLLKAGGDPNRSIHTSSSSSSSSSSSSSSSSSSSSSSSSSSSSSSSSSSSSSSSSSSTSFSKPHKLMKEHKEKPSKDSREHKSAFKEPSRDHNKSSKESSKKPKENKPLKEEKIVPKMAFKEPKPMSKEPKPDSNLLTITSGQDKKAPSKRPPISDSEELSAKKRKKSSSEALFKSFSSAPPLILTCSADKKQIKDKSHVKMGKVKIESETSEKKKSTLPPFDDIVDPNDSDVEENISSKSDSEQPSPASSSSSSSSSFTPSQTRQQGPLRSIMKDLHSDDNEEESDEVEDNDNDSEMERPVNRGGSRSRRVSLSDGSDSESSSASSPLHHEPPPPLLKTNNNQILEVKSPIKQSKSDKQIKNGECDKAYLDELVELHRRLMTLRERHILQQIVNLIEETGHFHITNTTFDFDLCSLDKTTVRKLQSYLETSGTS
Vif A3G: HIV-1 Vif–A3G interaction blockers – biochemical, TR-FRET, GST-Vif 1-94, biotin-A3G peptide, dose response retest, primary screen (AID 1117319). TR-FRET GST-Vif / biotin-A3G peptide binding; higher % means a stronger effect; test concentration not given here; strong numbers were not always called active. inhibition, %; hits with a dose series show IC50 in µM. actives 0.57% (n = 260,000);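 active = above the screen mean plus three standard deviations and confirmed in dose response; inconclusive = results disagree or hit not tested in dose response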;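 note: Vif residues 1-94 fused to GST binding biotinylated APOBEC3G peptide 110-148; 0% = full assay without inhibitor and 100% = GST in place of GST-Vif; retest series ran down from 100 µM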
A1 inh: inhibitors of the anti-apoptotic protein A1, read as caspase activation; MEF A1-2A-BIM cells, Caspase-Glo 3/7 luminescence, 3 h; percent of clofoctol response, vehicle zero; caspase activation, % (test concentration not listed); actives 0.066% (n = 330,000); AID 2462;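 active = over half of replicate activation scores above 10%, or exactly half above 10 with the replicate mean above 10; inconclusive = replicate mean below 10 yet half the replicates above 10; inactive = over half of replicates below 10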;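 note: wells of about 30 µL received 50 nL stock; many hits fall short of the cut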
T cruzi repl: blocks replication of Trypanosoma cruzi; inhibition, % (no concentration beside the values); actives 1.4% (n = 300,000); T. cruzi beta-gal in NIH3T3, luminescence, 90 h;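 active = mean inhibition across valid replicates above about 55%, limit read from the data; inconclusive = mean below that limit but half or more replicates reach it; inactive = mean below it, under half of replicates reach it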;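 note: signal also drops with host cell toxicity which is not excluded here; 0% = plate median of DMSO wells and 100% = zero luminescence signal; higher percent means less beta-gal luminescence so fewer parasites; stock transfer was 50 nL into about 50 µL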
rRNA inh HTS: selective bacterial rRNA inhibition in E. coli; E. coli WT GFP vs humanized-ribosome RFP mutants, fluorescence, 24 h; hits give low values; DMSO median 0, no signal -100; GFP signal change (wild-type ribosome), % (test concentration not listed); actives 1.6% (n = 350,000); AID 720706;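 active = significant combined selectivity score with lowered wild-type GFP, culture density cut under 30%, mutant RFP and density less affected; inactive = any of these conditions unmet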; note: one replicate is shown; some compounds called inactive have numbers as strong as hits
RanGTP-Imp inh: disruptors of Ran-importin-beta complex formation – biochemical, FRET, CFP-Ran, YFP-importin-beta, homogeneous, primary screen | cell-free CFP-Ran/YFP-importin-beta FRET ratio | inhibition, % (concentration not given with the values) | actives 1.1% (n = 300,000) | AID 2216;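 active = most replicates above 15%; inconclusive = exactly half above 15%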;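 note: 0% = DMSO wells and 100% = Ran loaded with GDP instead of GTP; wells of about 40 µL received 100 nL stock; the first replicate is given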
Calb FLC: affects C. albicans growth with fluconazole. C. albicans CaCi-2 (fluconazole-resistant clinical isolate) + fluconazole, Alamar Blue growth, 48 h. growth inhibition, % (concentration not given with the values). actives 0.57% (n = 300,000). AID 1979;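 active = most replicates above 75%; inconclusive = exactly half above 75%; inactive = most below 75%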;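 note: all wells also contain fluconazole at 8 µg/ml as a sub-toxic cotreatment; 0% = median of DMSO wells and 100% = median of geldanamycin control wells; wells of about 8 µL received 7.5 nL stock; the first replicate is given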
rRNA inh HTS OD600: also measured in rRNA inh HTS; calls as there; OD600 change, %; measured here: OD600 growth;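 optical density of the mix in the first replicate; 0 = DMSO median and -100 = no signal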
rRNA inh HTS RFP: also measured in rRNA inh HTS; calls as there; RFP signal change, %; measured here: RFP humanized mutant strains;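 first replicate; 0 = DMSO median and -100 = no signal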
Numbers without * were called inactive; ? = inconclusive; . = no result given; & = joins results of further samples. This is a subset; rates above refer to the full screens.

SMILES	Beta cell apopt	AF4-AF9 inh	Vif A3G	A1 inh	T cruzi repl	rRNA inh HTS	rRNA inh HTS OD600	rRNA inh HTS RFP	RanGTP-Imp inh	Calb FLC
CCc1nnc(NC(=O)C23CC4CC(CC(C4)C2)C3)s1	-1	-0.4	-1%	-0.6	0	-2	-14	-8.1	-3.0	-6
COc1ccccc1-c1ccc(SCC(=O)NC2CCCC2)nn1	.	4.9	3%	-0.2	5	0	1	-1.8	-2.6	-17
CCOc1cc(C2Nc3cccc4cccc(c34)N2)ccc1O	7	.	20%	0.5	7	.	.	.	-2.9	16
COc1ccccc1C(=O)NC(=S)N1CCc2ccccc21	-6	7.0	-9%	-0.3	-4	-24*	-15*	-2.7*	3.9	26
COc1ccc2c(c1OC)C(=O)N1C2SC[C@H]1C(=O)NC1CCCC1 (some centres undefined)	-13	-11	2%	-0.3	-22	-2	-3	-3.4	-0.8	1
CC(c1ccccc1)C1C(C#N)=C(N)OC2=C1C(=O)CC(C)(C)C2 (centres undefined)	2	.	7%	1.8	20	.	.	.	-1.3	-2
CCCCC(=O)Nc1cccc(-c2cn3ccsc3n2)c1	6	.	3%	-0.3	12	.	.	.	-4.0	12
Cn1cccc1/C=C1\SC(=O)N(CC(=O)Nc2ccc(Cl)cc2)C1=O	0	-1.7	-7%	0.7	-8	5	6	7.4	5.0	5
COc1ccc(OC)c(NC(=O)CSc2nc3cccnc3n2C)c1	.	.	3%	-0.6	0	.	.	.	-0.3	-4
COc1cc(C)ccc1OCC(=O)NC1CCCCCC1	-1	-1.6	6%	0.2	.	-10	-19	0.3	.	.
CN(CCC1CCOCC1)C(=O)C1CCC(=O)N(CCc2ccccc2)C1 (centres undefined)	0	-2.6	0%	0.6	-10	8	0	6.9	?	-1
COc1ccc2c(c1)C(C)CC(C)(C)N2C(=O)CSc1nc2ccccc2s1 (centres undefined)	8	.	-1%	0.3	18	.	.	.	-1.5	4
Cc1ccc(-n2c(SCC(=O)NCc3ccco3)nnc2-c2cccnc2)c(C)c1	7	.	-5%&7%	0.3	13	.	.	.	3.3	-6
O=C(CSc1ncnc2sc3c(c12)CCCC3)c1ccccc1	1	.	.	1.1	23	.	.	.	-1.0	4
Cn1c(=O)n(C)c2cc(/C=N/n3cnnc3)ccc21	-1	.	3%	0.4	?	.	.	.	-2.3	12
O=C(NCN1CCCCC1)c1cccnc1	-1	.	0%	-0.6	12	.	.	.	3.5	-8
COc1ccc(Cl)cc1NC(=O)CN1C(=O)NC2(CCCC2)C1=O	-6	-2.3	.	2.8	-4	-2	-2	0.4	2.4	-2
N/C(Cc1ccc(Cl)cc1Cl)=N\OC(=O)Cc1ccccc1	0	-24	.	-0.6	-1	-3	-3	-2.2	2.5	-29
CC(C)NC(=O)CSc1nnc(-c2ccco2)n1N	-3	.	5%	0.2	4	.	.	.	-2.8	11
COc1ccc(Nc2nnc(SCC(=O)N3CCCC3)s2)cc1	4	.	0%	0.7	-19	.	.	.	?	9
CN1CCN(C(=O)C2=C[C@@H](C(C)(C)C)C[C@@H](OCc3ccc(CO)cc3)O2)CC1	6	-0.2&2.3	28%	0.1	-19	11	10	4.3	-1.8	-13
CC(C)CNC(=S)N1CCN(C)CC1	-10	.	10%	-0.1	6	.	.	.	-1.9	-12
O=C(CN1C(=O)C2CC=CCC2C1=O)NC1=NCCS1 (centres undefined)	.	.	-4%	1.0	-13	.	.	.	6.5	6
Cc1ccc(-n2nc(C)c(C3(O)C(=O)N(C(C)C)c4ccccc43)c2N)cc1 (centres undefined)	-3	.	-5%	0.8	-12	.	.	.	-0.9	0
NC(=O)COC(=O)c1c2c(nc3ccccc13)CCC2	18	1.4	?	0.3	7	27	12	2.8	-6.9	-8
CCOC(=O)C1(Cc2cccc(OC)c2)CCN(Cc2cnc(SC)nc2)CC1	-4	1.1	-9%	0.6	7	-8	-14	1.4	68*	33
CCOc1ccc(CNS(=O)(=O)c2ccc3c(c2)CC(=O)N3C)cc1	-1	-1.0	.	-0.3	6	4	12	2.6	3.7	10
O=C(N/N=C/c1cn(-c2cccs2)nc1-c1ccccc1)c1ccccc1Br	7	6.8	13%	-0.6	11	-19	-12	4.1	4.6	1
COc1cccc(NC(=O)Nc2nc(SC(C)(C)C)ns2)c1	.	6.7	-1%	-0.6	27	-49	-74	-13	-2.9	3
CCOc1cccc(C(=O)Nc2cccc(-c3nnc(-c4ccccc4)o3)c2)c1	.	-4.1	-6%	-0.4	15	1	-7	-2.1	-0.1	3
O=C(Cc1cccc2ccccc12)Nc1nc2ccccc2[nH]1	11	.	3%	0.3	24	.	.	.	3.5	-8
Cc1cccc(NC(=O)c2ccc(NC(=O)c3ccccc3Br)cc2)c1	8	-0.8	1%	0.6	6	2	8	-2.3	7.2	1
O=C1CC(N2CCCCCC2)C(=O)N1c1ccc(F)cc1 (centres undefined)	-3	-1.3	2%	0.2	-4	2	2	-0.4	6.3	2
CC(C)COc1ccc(-c2nnn(CC(=O)N3CCCC3)n2)cc1	-3	.	2%	0.2	33	.	.	.	-1.1	30
O=C(COC(=O)c1ccco1)NCc1ccccc1Cl	-3	-0.1	-2%	-0.2	4	.	.	.	-3.5	-2
Cc1ccc(NCC(=O)N/N=C/c2ccc(OC(=O)c3ccco3)cc2)cc1	4	5.0	11%	0.3	4	14	5	0.5	1.9	?
CN(C)c1ccc(C(=O)OCC(=O)NC2CCCCCC2)cc1	-3	-0.4	-10%	-0.1	10	9	9	1.9	?	-17
Cc1[nH]c2ccccc2c1/C=N/Nc1cccc(C(=O)O)c1	-11	3.3	26%	-2.0	-12	29	11	0.1	-1.4	-3
Cc1cc(NC(=O)C2CC(c3ccc(Cl)cc3)=NO2)no1 (centres undefined)	-3	.	7%	-0.1	-17	.	.	.	1.8	4
CN(CCOC(=O)CN1C(=O)c2ccccc2C1=O)C1=NS(=O)(=O)c2ccccc21	3	.	?	0.1	10	.	.	.	0.4	42
O=S(=O)(NCC(c1cccnc1)N1CCOCC1)c1ccc(Cl)cc1 (centres undefined)	4	0.8	2%	-0.8	-16	11	7	1.5	25	-3
Cc1ccccc1-c1nc(S(=O)(=O)c2ccccc2)c(NCCCN2CCOCC2)o1	-6	6.5	.	-0.4	.	-7	-8	6.9	.	.
Nc1nc(SCc2ccccc2)c2[nH]cnc2n1	-4	1.2	-9%	0.2	-12	1	3	-1.3	-0.8	3
CCn1nc(C)c(CNC(=O)C2CCC(=O)N(Cc3cccc(F)c3)C2)c1C (centres undefined)	2	-2.1	-6%	0.2	-19	7	13	2.9	?	-1
CN1c2ccccc2Oc2c(c(=O)n(C)c(=O)n2C)C1c1cccc([N+](=O)[O-])c1 (centres undefined)	-2	.	10%	0.7	4	.	.	.	-3.3	9
CN1C(=O)N(C)c2ccc(Br)c3cccc1c23	-2	2.2	-16%	-0.5	-1	-2	-9	-2.0	3.9	35
CC(=O)c1c(C)[nH]c(C(=O)OCC(=O)Nc2sc3c(c2C#N)CCCC3)c1C	52	-4.9	.	0.3	1	.	.	.	-2.0	60
CN(C)c1ccc(CN(C(=O)COc2ccc(Br)cc2)C2CCS(=O)(=O)C2)cc1 (centres undefined)	7	.	4%	0.6	47	.	.	.	-4.3	4
N/C(=N\OC(=O)c1ccc2c(c1)OCO2)c1cccnc1	-10	-1.4	0%	-5.5	10	3	11	-1.6	1.6	25
COc1ccccc1NC(=O)CCc1nc(-c2cccs2)no1	0	.	0%	-1.2	1	.	.	.	0.7	1
Cc1ccc(-n2ncc3c(=O)n(CC(=O)NC4CCCC4)cnc32)cc1C	-1	.	1%	-0.8	-1	.	.	.	-0.8	10
CC(C)CNC(=O)c1ccccc1NC(=O)CN(c1ccc2c(c1)OCCO2)S(C)(=O)=O	.	.	-6%	-0.7	-2	.	.	.	-1.9	1
Cc1ccc(C)c(OCC(=O)N2CCOCC2)c1	-12	.	3%	-0.8	9	.	.	.	4.8	3
C[n+]1c2n(c3ccccc31)N=C(c1cc(C(C)(C)C)c(O)c(C(C)(C)C)c1)CS2	107*	27*	14%	0.4	61*	-55	-80	-21	1.5	9
C#CCN1N=C(c2ccc(C)cc2)CSC1=O	-6	.	.	-0.6	3	-6	-11	3.2	-1.2	?
N#CCc1ccc(C(=O)c2ccccc2F)s1	0	.	15%	-0.1	12	.	.	.	-1.0	2
O=C(CN1C(=O)c2ccccc2S1(=O)=O)NCc1ccc(F)cc1	-3	-0.5	.	0.0	-7	7	6	0.4	0.7	3
CC(C)c1ccc(S(=O)(=O)N2CCN(CC(=O)c3ccc(O)c(O)c3)CC2)cc1	1	-1.3	25%	0.6	-3	-2	4	-1.1	1.0	-4
CCOC(=O)N1CCC(NC(=O)c2ccc(CS(=O)c3cccc(C)c3)o2)CC1 (centres undefined)	-5	-1.8	.	0.2	-5	-3	0	-0.1	0.4	-17
COc1ccc2cc(-c3[nH]ncc3CN3CCCN(c4ccccc4)CC3)ccc2c1	-11	17	4%	1.1	52	-58	-81	-21	-3.2	28
Other records follow.
SMILES	Beta cell apopt	AF4-AF9 inh	Vif A3G	A1 inh	T cruzi repl	rRNA inh HTS	rRNA inh HTS OD600	rRNA inh HTS RFP	RanGTP-Imp inh	Calb FLC
Cc1ccc(-c2csc3nc4cc(C(N)=O)ccc4c(=O)n23)cc1	-7	-0.5	-18%	-0.6	-24	8	9	-9.6	7.3	12
CCN(CC(=O)Nc1ccc2c(c1)OCCO2)C(=O)/C=C/c1cccc(C(F)(F)F)c1	1	2.3	.	-0.7	.	1	-11	-1.6	.	.
COc1cc(NC(=O)CN(C)C2CCCCC2)c(C)cc1[N+](=O)[O-]	3	3.6	.	0.9	4	8	31	3.8	1.9	12
O=S(=O)(NC(=NC1CCCCC1)c1ccccc1)c1ccc(F)cc1	.	0.0	12%	0.4	-1	1	-3	-0.8	0.9	-2
CCCNC(=O)c1ccccc1SCc1c(C)noc1C	-12	0.4	-15%	0.1	-2	-7	-5	-1.2	-2.3	2
CCOCCCNC(=O)c1c[nH]c2ccc(S(=O)(=O)Nc3cccc(OC)c3)cc2c1=O	10	.	9%	1.3	0	.	.	.	6.7	-10
Cc1nc2ccccc2c2c1C(=O)N(c1ccc(C(=O)O)cc1)C2=O	14	-1.2	1%	0.0	1	8	-2	-1.3	4.2	11
Nc1c(-c2ccccc2)cnn1-c1cccc(C(F)(F)F)c1	5	.	4%	0.5	15	.	.	.	1.9	-17
C/C=C/CSc1nc2c(c(=O)[nH]c(=O)n2C)n1Cc1ccc(C)cc1	-11	3.3	1%	0.2	7	5	10	-4.0	3.6	3
Cc1nc(NCCCN2CCOCC2)c2oc3ccccc3c2n1	-7	.	-7%	0.1	-4	.	.	.	-1.2	8
